Assay outcomes (PubChem)
PK Bst: Pyruvate Kinase; partly purified Bacillus stearothermophilus pyruvate kinase, luminescence ATP production; ribose 5-phosphate activator present at AC10; Potency, µM; 51,000 compounds, 1.2% hits; in the data active means potency below about 11 µM; inconclusive means mostly about 12 µM to 25 µM; inactive means weaker than that;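 the screen sought inhibitors and activators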;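 also: potency is read from the fitted curve at half-maximal effect; scaled between full activation by ribose 5 phosphate and full inhibition by luteolin; about four in five hits inhibit and the cells do not say which; series up to 57 µM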
YjeE inh: qHTS Assay for Inhibitors of YjeE; AID 605, 2007; Potency, µM; 71,000 compounds, 0.05% hits; tRNA threonylcarbamoyladenosine biosynthesis protein TsaE (Escherichia coli (strain …; purified YjeE, fluorescence polarisation of a bound ADP probe; active = well fitted falling curve; inconclusive = weaker or top-dose-only fall, or a rising curve; inactive = flat or poorly fitted curve;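 also: top concentration of the series not given in the record; excess ADP was the control for the full effect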
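Fluorescence polarization of a BODIPY Texas Red–ADP probe (2 uM) bound to purified YjeE (10 uM) was read after 15 min room-temperature incubation with compounds. Loss of polarization marks inhibitors; ADP serves as titrated control.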
Numbers without * were called inactive; i = inactive; ? = inconclusive; / = not tested or not shown. Some of the compounds tested; the hit share may differ from the screen's.

Compound	YjeE inh	PK Bst
Cc1nc2cnc(OCc3ccccc3)nc2n(CCC#N)c1=O	i	/
O=C(CN(C(=O)CCC(=O)Nc1nccs1)c1ccc(F)cc1)NCc1ccco1	i	>57
COc1ccc2c(c1OC)C(=O)N(c1cccc(C(F)(F)F)c1)C2	i	i
O=C(CSc1nnc(-c2ccc(F)cc2)o1)Nc1ccc(S(=O)(=O)N2CCCC2)cc1	i	>57
COc1ccc2c(c1OC)C(=O)N1c3ccccc3C(=O)N(c3ccccc3F)C21 (configuration not stated)	/	>25.6
Cc1cccc(-c2cc3nc4c(c(N5CCOCC5)n3n2)CCCC4)c1	i	?
Cc1ccc(-n2c(SCC(=O)NCC3CCCO3)nc3c(c2=O)SCC3)cc1 (configuration not stated)	i	>57
C=CCOc1cccc(C2C(C(=O)c3ccco3)=C(O)C(=O)N2Cc2ccncc2)c1 (configuration not stated)	i	>57
COc1ccccc1-c1cc(C(=O)NCc2ccccc2)no1	i	>57
CCOC(=O)CC(=O)CSCC(=O)Nc1ccc(C)cc1	i	>57
Cc1nn(-c2ccccc2)c(C)c1C(=O)OCC(=O)N1CC(=O)Nc2ccccc21	i	>57
O=C(Nc1cccc(F)c1)N1CC[C@@]2(CCCN(S(=O)(=O)c3ccccc3)C2)C1	i	/
C=CCNC(=O)CC(C)C(CCCCC)C(=O)O (configuration not stated)	i	>57
CC1=C(C(=O)OCCOc2ccccc2)C(c2ccc(C)o2)C2=C(CC(C)(C)CC2=O)N1 (configuration not stated)	i	/
CCOC(=O)C(C)Sc1nc2c(c(=O)[nH]c(=O)n2C)n1C/C=C(/C)Cl (configuration not stated)	i	>57
CCOC(=O)N1CCN(C(=O)CSc2nnc(-c3c[nH]c4ccccc34)n2CCOC)CC1	i	>57
COc1cc(OC)cc(-c2nnc(SCC(=O)N(Cc3ccccc3)C(C)(C)C)o2)c1	i	>57
Cn1c(CCN2CCCCC2)nc2cc(NS(=O)(=O)c3ccccc3)ccc21	i	>57
NC(=O)c1ccsc1NC(=O)c1nc(-c2ccccc2)n(-c2ccccc2)n1	i	>57
O=C(CSc1nnc(CNC(=O)c2c(F)cccc2Cl)o1)c1ccccc1	i	>57

Reprinted from the part before: 3 compounds, then new ones.
Compound	YjeE inh	PK Bst
Cn1c(CCN2CCCCC2)nc2cc(NS(=O)(=O)c3ccccc3)ccc21	i	>57
NC(=O)c1ccsc1NC(=O)c1nc(-c2ccccc2)n(-c2ccccc2)n1	i	>57
O=C(CSc1nnc(CNC(=O)c2c(F)cccc2Cl)o1)c1ccccc1	i	>57
CCOC(=O)CSc1nc2ccccc2n1CC(=O)N1CCN(c2ccccc2)CC1	i	>57
O=C(NCCCN1CCOCC1)c1ccc(CS(=O)(=O)Cc2ccccc2Cl)o1	i	>57
O=C(CCn1c(=O)oc2ccccc21)NCCN1CCc2ccccc2C1	i	>57
Cn1c(SCC(=O)Nc2ccc3cn[nH]c3c2)nnc1-c1cnccn1	i	>57
CC1CC(OC(=O)c2ccccc2O)CC(C)(C)C1 (configuration not stated)	i	/
C/C(N)=C(/C#N)C(=O)CSc1ncnc2ccccc12	i	>57
Cc1cccc(-c2noc(CCCC(=O)Nc3cccnc3)n2)c1	i	>57
CCOC(=O)CSc1nc2ccccc2c(=O)n1CC	i	>57
CN(C)S(=O)(=O)N1CCC(CCCC2CCN(S(=O)(=O)N(C)C)CC2)CC1	i	/
O=C(NCCc1nc2ccccc2[nH]1)Nc1ccccc1	i	/
Cc1nc2c3ccccc3n(CC(=O)c3ccc(F)cc3)c(=O)n2n1	i	/
O=C(O)C1OC(C(=O)O)C2C1C(F)(F)C2(F)F (configuration not stated)	i	>57
CC#CCN(CC#CC)S(=O)(=O)c1ccc(S(=O)(=O)N2CCOCC2)cc1	i	>57
CCOC(=O)c1ccc(NC(=O)Nc2ccn(C)n2)cc1	i	/
CCCc1nnc(SCC(=O)O)n1/N=C/c1ccc2c(c1)OCO2	i	>57
Cc1cc(SCC(=O)Nc2ccccc2)nc(C)n1	i	>57
O=C(CSc1ccc2nnc(-c3cccs3)n2n1)N1CCOCC1	i	/
COC(=O)[C@@]1(Cc2ccc(F)cc2)[C@H]2c3cc(C(=O)N(C)C)n(CCc4ccccn4)c3C[C@H]2CN1C(=O)c1ccccc1	i	/
Cc1ccc2nc(Nc3nc(=O)c4ccccc4n3C)nc(C)c2c1	i	/
O=C1CN(C(=O)COC(=O)C2=COCCO2)c2ccccc2N1	i	>57

Compound	YjeE inh	PK Bst
COc1ccccc1N1CCN(C(=O)C2CCN(S(=O)(=O)N3CCOCC3)CC2)CC1	i	>57
CCOC(=O)c1sc2nc(N3CCOCC3)c3c(c2c1N)CCC3	i	/
CC1CCc2nn(CC(=O)NCCCN3CCOCC3)cc2C1 (configuration not stated)	i	/
O=C(c1cnccn1)N1CCC[C@@]2(CCN(Cc3cc(C(F)(F)F)cc(C(F)(F)F)c3)C2)C1	i	/
Cc1nc2cnc(N3CCN(C)CC3)nc2n(C2CC2)c1=O	i	/
O=C1CC(Cc2ccccc2)C(=O)N1c1ccc(Cl)cn1 (configuration not stated)	i	>57
CCCOC(=O)c1ccc(Oc2c(-c3ccc(OC)cc3O)n[nH]c2C)cc1	i	>57
Cc1sc2ncnc(-n3cnc4ccccc43)c2c1C	i	>57
COc1ccccc1N1CCN(C(=O)C(C)N(c2ccc(C)c(C)c2)S(C)(=O)=O)CC1 (configuration not stated)	i	>57
CCOC(=O)c1ccc2[nH]c3c(c2c1)CN(C)CC3	i	/
Cc1cccc(CCNC(=O)C2CCN(S(=O)(=O)c3c(C)nn(C)c3C)CC2)c1	i	>57
CCc1nnc(NC(=O)CSc2nnc(Cc3ccccc3)n2-c2ccccc2)s1	i	>57
COC(=O)[C@@]1(Cc2ccccc2)[C@H]2c3cc(C(=O)N(C)C)n(Cc4ccsc4Br)c3C[C@H]2CN1C(=O)c1ccccc1	i	/
CCOc1cc(C(=O)NCC(C)CN(C)C)cc(OCC)c1OCC (configuration not stated)	i	>57
Cn1cc(CNC(=O)C2CCCCC2)cn1	i	>57
CCOC(=O)CC1C(=O)NC2CCCCC2N1C(=O)Nc1ccc(Cl)cc1 (configuration not stated)	i	>57
CC(=O)Oc1ccc(/C=C\C(=O)C[C@@H]2O[C@@H](Oc3cc(OC(C)=O)c4c(c3)O[C@@H](c3ccc(OC(C)=O)cc3)CC4=O)[C@H](OC(C)=O)[C@H](OC(C)=O)[C@@H]2OC(C)=O)cc1	i	/
C[C@@H](C(=O)O)/C(=C/c1ccc2c(c1)OCO2)C(=O)O	i	/
CC(=O)OC1CCC(OC(C)=O)c2c1n([O-])c(C)c(C)[n+]2=O (configuration not stated)	i	>57
CCOC(=O)N1CCC(NC(=O)C2CCN(C(=O)N3CC(C)Oc4ccc(C)cc43)CC2)CC1 (configuration not stated)	i	>57

Compound	YjeE inh	PK Bst
COCCOC(=O)c1c(C)oc2ccc(OC(=O)c3c(OC)cccc3OC)cc12	i	>57
CCN1C(=S)SC(=O)C1=C1C=C(C)OC(C)=C1	i	>57
Cc1nn(C(=O)CCCC(=O)n2nc(C)c(Cl)c2C)c(C)c1Cl	i	>57
CCN1CCN(C(=O)c2cc3c(s2)-c2ccccc2S(=O)(=O)C3)CC1	i	/
Cc1csc(SCCn2c(Br)nc3c2c(=O)[nH]c(=O)n3C)n1	/	>25.6
O=C(NCc1cccc2ccccc12)[C@H]1C[C@@H]1[C@H](NP(=O)(c1ccccc1)c1ccccc1)c1ccccc1	i	/
CC(C)CCNc1nc2c(c(=O)n(Cc3cccc(F)c3)c(=O)n2C)n1C	i	>57
CCOc1ccc(C2=Nn3c(nnc3-c3ccccc3)SC2)cc1Cl	i	>57
COC(=O)C1=C(C)NC2=C(C(=O)CC(c3cccs3)C2)C1c1ccsc1 (configuration not stated)	i	/
O=C1NC2C(NC(=O)N2C2CCCCC2)N1C1CCCCC1 (configuration not stated)	i	>57
Cn1c(SCC(=O)Nc2ccccc2-c2ccccc2)nnc1-c1ccco1	i	>57
COc1ccc(CNC(=O)CCS(=O)(=O)c2cccc3nonc23)cc1	i	>57
Brc1ccc(C2Nc3cccc4cccc(c34)N2)o1	i	/
CCCc1[nH]nc2c1C1(CCOC1C)C(C#N)=C(N)O2 (configuration not stated)	i	>57
O=C(Cl)c1ccccc1[N+](=O)[O-]	i	/
CC(C)(C)n1nnnc1C(c1cccc(C#N)c1)N1CCN2CCCC2C1 (configuration not stated)	i	>57
COc1ccc(S(=O)(=O)N(CCCN2CCCC2=O)Cc2cc3c(C)cc(C)cc3[nH]c2=O)cc1	i	>57
COc1ccc(NC(=O)CN(c2ccc(C)cc2)S(=O)(=O)c2c(C)nn(C)c2C)cc1OC	i	>57
O=C(Cc1ccsc1-c1ccccc1)NO	i	/
CC(C)Sc1nc2c(c(=O)n1-c1ccc(F)cc1)SCC2	i	>57

Compound	YjeE inh	PK Bst
CN(C)c1ccc(-c2nc(NCCN3CCOCC3)c3ccccc3n2)cc1	i	/
CC1C[C@@]2(NC(=O)NC2=O)C(C)CN1C (some centres not stated)	/	>11.4
Cc1cccc(-n2c(Cc3cc(=O)[nH]c(=O)[nH]3)nnc2SCC(=O)N2CCCCC2)c1	i	/
CSc1nc2sc3c(c2c(=O)n1C)CCCC3	i	/
CCNC(=O)C1CN(S(=O)(=O)c2ccccc2)CCN1S(=O)(=O)c1ccccc1 (configuration not stated)	i	>57
CCn1c(SCc2ccc(C#N)cc2)nnc1-c1ccc(S(=O)(=O)N2CCCCC2)cc1	i	>57
CC(C)Cn1c(N2CCN(C(=O)c3cccs3)CC2)nc2ccccc21	i	>57
COC(=O)Cn1cc(C(=O)c2ccco2)c2ccccc21	i	/
COc1ccc(C(=O)N2CCCC2)cc1S(=O)(=O)N1CCC(C)CC1	i	/
Cc1oc(CC(C)C)cc1C(=O)Nc1ccc(C(=O)O)cc1	i	/
O=C(N1CCOCC1)N1CCN(C(=O)N(c2ccccc2)c2ccccc2)CC1	i	>57
COCCn1c(=O)c(-c2ccc(F)cc2)nc2cnc(Oc3ccc(OC)cc3)nc21	i	/
Cc1ccc(S(=O)(=O)Nc2ccc(S(=O)(=O)Nc3ncccn3)cc2)cc1	i	>11.4
O=C1c2oc3ccc(Cl)cc3c(=O)c2C(c2ccccn2)N1CCCN1CCOCC1 (configuration not stated)	i	/
CC(=O)c1c(C)nc(C)nc1NC(=O)Cc1ccccc1	i	>57
O=C(Nc1ccc(Cl)cc1F)c1ccc(COc2c(F)c(F)c(F)c(F)c2F)o1	i	>57
O=C(COc1ccccc1Cl)N1CCN(c2ncccn2)CC1	i	>57
CCOc1ccc(NC(=O)c2oc3ccccc3c2NC(=O)C(C)C)cc1	i	>57
CC1CCCCN1C(=O)c1ccccc1NC(=O)c1ccco1 (configuration not stated)	i	>57
Cc1nc(NC2=NCN(Cc3ccccc3)CN2)nc2ccccc12	i	>57

2 successive entries out of the list so far, quoted:
Compound	YjeE inh	PK Bst
O=C1c2oc3ccc(Cl)cc3c(=O)c2C(c2ccccn2)N1CCCN1CCOCC1 (configuration not stated)	i	/
CC(=O)c1c(C)nc(C)nc1NC(=O)Cc1ccccc1	i	>57

Compound profiles (already shown). Values in the order: YjeE inh	PK Bst
`CCOc1ccc(C2=Nn3c(nnc3-c3ccccc3)SC2)cc1Cl` reads i	>57
`Cc1nn(C(=O)CCCC(=O)n2nc(C)c(Cl)c2C)c(C)c1Cl` reads i	>57
`CCOC(=O)c1ccc2[nH]c3c(c2c1)CN(C)CC3` reads i	/

Other structures.
Compound	YjeE inh	PK Bst
C/C=C(\C)c1nnc(NC(=O)c2ccco2)s1	i	>57
Cc1ccc(C(=O)Nc2nc3ccc(S(C)(=O)=O)cc3s2)s1	i	i
COc1cc(CCC(=O)N2CCN(S(=O)(=O)c3ccc(C)c(C)c3)CC2)cc(OC)c1OC	i	/
CCCCn1c(-c2ccccc2)nnc1-c1ccccc1	i	>57
Cc1nc2ccc(S(=O)(=O)N(C)CC(=O)NCc3ccc4c(c3)OCO4)cc2s1	i	>57
CC(=O)OC1c2ccccc2C(=O)N1c1ccccc1C (configuration not stated)	i	/
CCN(CC)CCOc1c(Br)ccc2c1sc1nc3n(c(=O)c12)CCC3	i	/
CCOC(=O)c1c(C)[nH]c(C(=O)COC(=O)CCC(=O)c2ccc3c(c2)OCCO3)c1C	i	>57
Nc1ccc(OCc2ccccc2)cc1	i	/
COC(=O)CN1C(=O)C(O)(CC(=O)c2ccccc2)c2ccccc21 (configuration not stated)	i	/
CCOC(=O)Cc1csc(NC(=O)CSc2ncnc3c2cnn3-c2ccccc2Cl)n1	i	>57
Cc1nc(N2CCN(c3ccccc3)CC2)nc2c1C(=O)CC(C)C2 (configuration not stated)	i	>57
C=CCOC(=O)C1=C(C)Nc2ncnn2C1c1cc(Br)ccc1F (configuration not stated)	i	>57
COc1ccc(Oc2ncc3nc(-c4cccs4)c(=O)n(C)c3n2)cc1	i	/
CC1=C(C(=O)Nc2cccnc2)C(c2ccc(C(C)C)cc2)n2ncnc2N1 (configuration not stated)	i	/
CC1=C(C(=O)OCC2CCCO2)C(c2ccc(O)cc2)NC(=O)N1 (configuration not stated)	i	>57
